Bioassay records deposited in PubChem BioAssay by ICCB-Longwood Screening Facility, Harvard Medical School.
Sa growth inh: S. aureus growth inhibition at 42 and 30 °C, primary screen, LtaS inhibitor project, RN4220, two temperatures | OD600, 20 h, 42 °C; hits give low values | relative growth, % (test concentration not listed) | actives 0.53% (n = 170,000);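 active = growth at 42 °C up to 50% and 20 or more points under that at 30 °C, or under 10% at both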;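 note: 300 nL library stock went into each well; scaled to the means of positive and negative controls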
HCMV UL50-53 inh: inhibitors of HCMV UL50-UL53 interaction, biochemical, HTRF; actives 0.15% (n = 190,000); inhibition, % (no concentration beside the values); HCMV UL50-UL53 nuclear egress complex (human cytomegalovirus); normalized percent inhibition;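 active = both replicates at 50% or more, plus weaker picks with an unusually low signal ratio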;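 note: stock transfer was 100 nL into about 20 µL; 0% = negative control wells and 100% = wells with untagged competitor protein; inactives centre near -12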
GIV Gai3 FP: inhibitors of GIV peptide binding to Galpha-i3, primary screen, biochemical, fluorescence polarization, FITC-GIV GBA peptide, rat Galphai3 | 90 min; hits give low values; scaled: aluminum fluoride 0%, vehicle 100% | percent of control (FP), % (no concentration beside the values) | actives 0.42% (n = 210,000) | AID 1224905, 2016;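 active = replicate mean at 85% of control or lower, very high polarization wells dropped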;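 note: wells of about 15 µL received 100 nL stock; the first replicate is given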
Target sequence (P08753 whole entry, looked up): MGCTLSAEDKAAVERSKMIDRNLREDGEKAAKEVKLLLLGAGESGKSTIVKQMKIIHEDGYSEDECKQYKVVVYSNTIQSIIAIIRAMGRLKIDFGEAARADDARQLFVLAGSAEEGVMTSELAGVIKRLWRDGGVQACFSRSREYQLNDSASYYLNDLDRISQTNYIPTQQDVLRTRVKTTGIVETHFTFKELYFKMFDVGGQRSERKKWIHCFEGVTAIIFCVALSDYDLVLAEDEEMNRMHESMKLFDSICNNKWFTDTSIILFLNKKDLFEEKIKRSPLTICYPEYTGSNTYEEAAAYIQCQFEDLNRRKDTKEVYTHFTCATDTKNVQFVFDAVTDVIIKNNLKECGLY
Sa growth inh second temp: second read-out of Sa growth inh, no call of its own (marks repeat the call); relative growth, %; measured here: growth at 30 °C;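 optical density after 20 h as mean of two plates; 100% = untreated growth and lower means inhibition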
Active calls of the source: *; · = no result given; & = joins results of further samples.

SMILES	Sa growth inh	Sa growth inh second temp	HCMV UL50-53 inh	GIV Gai3 FP
O=C1CN(C(=O)COc2ccc(Cl)cc2)C(c2ccccc2)c2cc(Br)ccc2N1 (configuration not stated)	69	83	-29	100
Cc1oc(C(C)(C)C)cc1C(=O)Nc1ccc(F)cc1	99	101	-7	103
CCOC(=O)c1cc(-c2ccccc2)n(CCC(=O)O)c1C	110	95	·	98
CC1(C)CC(=O)C=C(SCC(=O)Nc2cc(C(F)(F)F)cc(C(F)(F)F)c2)S1	78	82	-33	101
Cc1cccc(OCCC(=O)OCc2ncc(-c3ccccc3)o2)c1	102	95	-11	·
O=C(CN(c1cccc(C(F)(F)F)c1)S(=O)(=O)c1ccccc1)Nc1cccc(Cl)c1	110	103	·	102
O=C(CN1C(=O)/C(=C\c2ccc(Cl)cc2)Sc2ccccc21)NCC1CCCO1 (configuration not stated)	89	79	·	99
CC/C(=N\NC(C)=O)c1ccc(OC(F)F)cc1	90	90	-25	·
COc1ccc(CNC(=O)CSc2c3c(nc4ccc(Cl)cc24)CCCC3)cc1	97	97	-35	108
O=C1CCC(c2ccc(-n3ccnc3)cc2)=NN1	·	·	-24	100
CC(C)=CCC(C)(C)CNc1ccc(C)cc1	117	91	-20	106
C=CCNC(=O)CCc1nnc2n(CCC)c(=O)c3sccc3n12	·	·	-32	97
O=C(CSC1=Nc2ccccc2N=C(c2ccc(Cl)cc2)C1)Nc1ccc2c(c1)OCCO2	·	·	-19	101
O=C(Cn1ncc2ccsc2c1=O)N1CCN(c2ccc(Cl)cc2)CC1	104	85	-31	104
CCCNC(=O)CSC1=NS(=O)(=O)c2ccccc2N1	104	93	-16	103
Cc1cc(C)n(-c2ccc(N)cc2)n1	90	91	-2	97
CN(C)/C(=N\S(=O)(=O)c1ccccc1)c1ccccc1	91	91	8	·
O=C1C2C3C=CC(C3)C2C(=O)N1CCO (configuration not stated)	103	92	·	103
Oc1oc(-c2ccco2)nc1/C=N/c1ncn[nH]1	109	117	4	104
COc1cccc(-c2nn(Cc3cccc(C)c3)c(=O)c3noc(C)c23)c1	·	·	-32	126
COc1cccc(NC(=O)CSc2c(C)cnc3c2c(=O)n(C)c(=O)n3C)c1	107	99	·	110
COc1ccc(-c2cc(C)no2)cc1S(=O)(=O)CCC(=O)N1CCc2ccccc2C1	·	·	-16	107
CC(=O)Nc1cc(S(=O)(=O)C(F)(F)F)ccc1C	103	92	-13	103
CCC(CC)C(=O)Nc1ccc(C(=O)OCc2cc(=O)n3nc(C4CC4)sc3n2)cc1	73	90	·	103

4 compounds from above, sorted by SMILES length, ascending.
SMILES	Sa growth inh	Sa growth inh second temp	HCMV UL50-53 inh	GIV Gai3 FP
O=C(Cn1ncc2ccsc2c1=O)N1CCN(c2ccc(Cl)cc2)CC1	104	85	-31	104
COc1cccc(-c2nn(Cc3cccc(C)c3)c(=O)c3noc(C)c23)c1	·	·	-32	126
COc1ccc(-c2cc(C)no2)cc1S(=O)(=O)CCC(=O)N1CCc2ccccc2C1	·	·	-16	107
CCC(CC)C(=O)Nc1ccc(C(=O)OCc2cc(=O)n3nc(C4CC4)sc3n2)cc1	73	90	·	103

Remaining list, next part.
SMILES	Sa growth inh	Sa growth inh second temp	HCMV UL50-53 inh	GIV Gai3 FP
CCCNC(=O)CSc1nc2sc(C)c(C)c2c(=O)n1C1CCCC1	92	96	-1	·
CSC1=NCCCN1C(=O)c1c(-c2ccccc2Cl)noc1C	103	98	16	105
Cc1ccc(C2CC(c3ccc(NS(C)(=O)=O)cc3)=NN2C(=O)CCCC(=O)O)cc1 (configuration not stated)	·	·	-58	100
CCOCCOC(=O)C(C)Oc1ccc2c(=O)c(-c3ccc(OC)c(OC)c3)c(C(F)(F)F)oc2c1 (configuration not stated)	·	·	-13	98
NC(=O)CSc1nnc(C2CC2)n1Cc1ccccc1	119	113	10	103
Cc1ccccc1C(=O)NCc1ccc2c(c1)CCN2C(=O)c1ccccc1	101	78	·	99
CCCCc1ccc(NC(=O)Cn2cnc3c(oc4ccccc43)c2=O)cc1	127	91	·	115
CC1CN(C(=O)N2CCC(C(=O)NCc3cccs3)CC2)c2cc(Cl)ccc2O1 (configuration not stated)	110	91	-17	106
COc1cccc(CNC(=O)C2CCCN(S(=O)(=O)c3ccc4c(ccn4C)c3)C2)c1 (configuration not stated)	108	101	·	107
CCCN(CCC)S(=O)(=O)c1ccc(C(=O)Nc2nc3c(OCC)cccc3s2)cc1	·	·	9	104
CC(=O)Nc1ccc(S(=O)(=O)N2CCN(c3nc4ccccc4s3)CC2)cc1	83	100	-2	98
COC(=O)CSC(=S)N1C(C)CCCC1C (configuration not stated)	99	95	-1	·
CC1CC(=O)c2cnc(N3CCN(c4ccc(F)cc4)CC3)nc2C1 (configuration not stated)	·	·	-32	100
CCCn1c(=O)c2sccc2n2c(CCCC(=O)Nc3ccc(Oc4ccccc4)cc3)nnc12	121	101	·	113
CN(C1CCCCC1)S(=O)(=O)N1CCCC(C(=O)O)C1 (configuration not stated)	104	91	·	101
N#Cc1ccccc1CO/N=C(\N)c1nonc1N	93	84	-33	99
CCc1ccc2ncc(S(=O)(=O)c3ccccc3)c(N3CCCC3)c2c1	69	73	·	104
O=c1oc2ccc(Cl)cc2cc1-c1cn2c(n1)sc1ccccc12	100	99	·	110
O=C(c1ccc(Cl)cc1)N1CCN(c2cccc3[nH]ccc23)CC1	104	89	-2	106
COc1cccc(CNC(=O)Cn2nc(-c3ccc(Cl)cc3)ccc2=O)c1	111	98	·	105
C=Cc1ccc(Cn2nc3n(CC(C)C)c(=O)c4ccc(C(=O)NC5CCCC5)cc4n3c2=O)cc1	·	·	-10	107
CC(C)CC(=O)CC1(O)C(=O)Nc2ccccc21 (configuration not stated)	86	90	·	104
CCOc1cccc2sc(N3CCN(C(=O)C(C)(C)C)CC3)nc12	88	87	·	99
CCC1CCc2nc3sc(C(=O)Nc4cccc(F)c4)c(N)c3cc2C1 (configuration not stated)	109	95	0	100

In the list so far, six contain two or more sulfur atoms.
SMILES	Sa growth inh	Sa growth inh second temp	HCMV UL50-53 inh	GIV Gai3 FP
CC1(C)CC(=O)C=C(SCC(=O)Nc2cc(C(F)(F)F)cc(C(F)(F)F)c2)S1	78	82	-33	101
CCCNC(=O)CSC1=NS(=O)(=O)c2ccccc2N1	104	93	-16	103
CCCNC(=O)CSc1nc2sc(C)c(C)c2c(=O)n1C1CCCC1	92	96	-1	·
CCCN(CCC)S(=O)(=O)c1ccc(C(=O)Nc2nc3c(OCC)cccc3s2)cc1	·	·	9	104
CC(=O)Nc1ccc(S(=O)(=O)N2CCN(c3nc4ccccc4s3)CC2)cc1	83	100	-2	98
COC(=O)CSC(=S)N1C(C)CCCC1C (configuration not stated)	99	95	-1	·

(list continues)
SMILES	Sa growth inh	Sa growth inh second temp	HCMV UL50-53 inh	GIV Gai3 FP
COc1ccc(-c2nc(-c3ccc(C)nc3OC)no2)cc1	·	·	1	100
CCOC(=O)/C(C#N)=C1\CCCc2cc(OC)ccc21	96	78	-9	102
CCCCN(C)C(=O)c1ccc2c(=O)n3nc(Nc4cc(C)ccc4C)sc3nc2c1	101	102	·	97
CCOC(=O)C1=C(C)N=c2s/c(=C\c3ccc(OCC(=O)O)c(OC)c3)c(=O)n2C1c1ccc(OC)cc1 (configuration not stated)	·	·	-36	105
CN(c1ccc(Cl)cc1)S(=O)(=O)c1ccsc1-c1nc(-c2ccc3c(c2)OCO3)no1	·	·	-14	102
CCOC(=O)Cc1ccc(NC(=O)N(Cc2ccc(OC)cc2)C2CCN(C(C)=O)CC2)cc1	102	87	·	102
COc1ccc2c(c1OC)C(=O)N1c3ccccc3N=C(c3ccc(Br)cc3)CC21 (configuration not stated)	79	101	-5	·
CSc1nc(-c2ccncc2)nc(N)c1C#N	105	96	3	102
CCC(C)NC(=O)C1CCC(CNS(=O)(=O)c2ccccc2)CC1 (configuration not stated)	119	83	·	102
CC(C)NS(=O)(=O)c1ccc(N2C(=O)CCS2(=O)=O)cc1	·	·	-10	110
COc1cccc(-c2ncc(-c3ccccc3)o2)c1	86	78	20	99
O=C(Cn1cnc(S(=O)(=O)N2CCCCC2)c1)N1CCC(Cc2ccccc2)CC1	97	84	-29	101
CCOc1ccc(N(Cc2nc3nc(C)cc(C)n3n2)S(=O)(=O)c2ccccc2)cc1	·	·	-20	105
CC1CSc2ccc(S(=O)(=O)N3CCOCC3)cc2N(CC(=O)N2CCCc3ccccc32)C1=O (configuration not stated)	·	·	-19	100
COc1cccc(NS(=O)(=O)c2ccc3[nH]cc(C(=O)N(C)Cc4ccccc4)c(=O)c3c2)c1	103	85	·	104
O=C(Nc1c[nH]c(=O)[nH]c1=O)c1ccc2c(c1)C(=O)N(c1ccc(C(=O)c3ccccc3)cc1)C2=O	94	93	-14	105
CCn1c(-c2cc(OC)ccc2OC)cs/c1=N\N=C\c1ccc(O)c(OC)c1	104	107	4	·
CC(C)(C)c1cc(C(F)(F)F)c2c(N)c(C(=O)NC3CC3)sc2n1	105	90	-6	·
CCCN(CCC)C(=O)Cn1nc(CC)n2c(cc3sc(C)cc32)c1=O	103	91	·	105
Cc1cc(-c2nn3c(-c4cccc(Cl)c4)nnc3s2)no1	·	·	-11	106
Cc1c(C(=O)Nc2ccncc2)cc(-c2ccccc2)n1CCCN1CCOCC1	100	92	-17	111
COc1cc2[nH]c(=O)n(CCCC(=O)N3CCN(c4ccccc4OC)CC3)c(=O)c2cc1OC	·	·	0	108
COc1ccc2c(Sc3ccccc3)c(C(=O)NCc3cccc(OC)c3OC)[nH]c2c1	134	92	-28	97
CCN1CCN(CCNC(=O)C2CCCN(C(=O)c3[nH]c(C)c(C(=O)OC(C)C)c3C)C2)CC1 (configuration not stated)	·	·	13	101
Cc1ccc2nc3c(cc2c1)CCN3C(=O)C1CC1	·	·	-6	105
Cc1cc(-c2csc(-c3ccccn3)n2)c(C)n1Cc1ccco1	83	76	1	·
Cc1nn(-c2ccccc2)c(C)c1CCc1nn2c(C(F)(F)F)nnc2s1	·	·	-2	104
COC(=O)c1ccc(C(c2c(N)n(CC(C)C)c(=O)[nH]c2=O)N2CCN(S(=O)(=O)c3ccc(C)cc3)CC2)cc1 (configuration not stated)	101	91	4	·
CCC(C)OC(=O)C1=C(C)NC2=C(C(=O)CC(c3ccc(OC)c(OC)c3)C2)C1c1ccc(C)o1 (configuration not stated)	87	81	-14	·
COc1ccc(NS(=O)(=O)c2cc3[nH]c(=O)c(=O)[nH]c3cc2C)cc1OC	128	91	·	110
Cc1ccc(C)c(S(=O)(=O)N2CCC(c3nc4c(nnn4Cc4ccc(F)cc4)c(=O)[nH]3)CC2)c1	100	86	3	102
COc1ccc(-c2ccc(=O)[nH]n2)cc1	87	93	-17	109
Cc1cccc(-n2ccnc(NCCc3ccccc3)c2=O)c1	·	·	-27	109
C[N+]1(CCOS(=O)C23CC4CC(CC(C4)C2)C3)CCOCC1 (configuration not stated)	99	93	1	·
O=C(CSc1cn(CCNC(=O)c2cccs2)c2ccccc12)NC1CCCC1	99	73	-13	101
CCN1C(=O)CC(NCc2ccc3c(c2)OCO3)C1=O (configuration not stated)	96	109	-2	105

Given with each value named: entries from further up
Cc1cccc(-n2ccnc(NCCc3ccccc3)c2=O)c1
  Sa growth inh: ·
  Sa growth inh second temp: ·
  HCMV UL50-53 inh: -27
  GIV Gai3 FP: 109

C[N+]1(CCOS(=O)C23CC4CC(CC(C4)C2)C3)CCOCC1 (configuration not stated)
  Sa growth inh: 99
  Sa growth inh second temp: 93
  HCMV UL50-53 inh: 1
  GIV Gai3 FP: ·

COc1ccc(-c2ccc(=O)[nH]n2)cc1
  Sa growth inh: 87
  Sa growth inh second temp: 93
  HCMV UL50-53 inh: -17
  GIV Gai3 FP: 109

Compound profiles, as listed above.
Results for C[N+]1(CCOS(=O)C23CC4CC(CC(C4)C2)C3)CCOCC1 (configuration not stated) = Sa growth inh: 99; Sa growth inh second temp: 93; HCMV UL50-53 inh: 1; GIV Gai3 FP: ·
Results for O=C(CSc1cn(CCNC(=O)c2cccs2)c2ccccc12)NC1CCCC1 = Sa growth inh: 99; Sa growth inh second temp: 73; HCMV UL50-53 inh: -13; GIV Gai3 FP: 101

Going on with the list.
SMILES	Sa growth inh	Sa growth inh second temp	HCMV UL50-53 inh	GIV Gai3 FP
CCc1ccc(Nc2sc(C(=O)c3ccccc3)c(N)c2S(C)(=O)=O)cc1	109	89	-16	106
CCOC(=O)c1c(C)[nH]c(C)c1S(=O)(=O)NCC(=O)N1CCc2ccccc2C1	·	·	-15	106
O=C(COC(=O)c1ccccc1)NC1CCCCC1	85	90	-3	·
CCOC(=O)c1cc(NC(=O)c2ccc(OC)cc2)c(=O)n2c1oc1ccc(Cl)cc12	98	92	-8	107
CCOc1ccc(OCC)c(NC(=O)CN2C(=O)C(C)(C)c3ccccc32)c1	·	·	11	107
CCCN(CCC)S(=O)(=O)c1ccc(C(=O)NCc2ccc3c(c2)OCO3)cc1	89	103	-1	·
CC(C)n1cc(-c2noc(-c3cccs3)n2)c(=O)n(Cc2ccccc2)c1=O	87	86	-31	100
Nc1nonc1-c1nnnn1CC(=O)N1CCOCC1	92	81	-12	102
O=C(O)c1cc(Cl)ccc1Sc1ccccc1CO	115	95	-6	103
Cc1c(C(N)=O)nnn1-c1ccc(Cl)cc1	97	77	-21&-4	100&100
Cc1ccc(SCc2cn3cccnc3n2)cc1	92	88	·	100
